NPYLR7 agonist: activates Aedes aegypti NPYLR7 receptor. HEK293T NPYLR7/Galpha15, GCaMP6s calcium fluorescence. activation, % at 10 µM. 270,000 tested, 0.15% active; in the data active = activation above about 40%;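 note: 0% = vehicle and 100% = reference agonist at the receptor; some compounds past the cut are filed as inactive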
NPYLR7 agonist max-min: second read-out of NPYLR7 agonist, no call of its own (marks repeat the call); activation, %; measured here: Max-Min RFU normalised activation; some inactives read as strong as hits;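 span of the calcium signal over five minutes; 0% = vehicle and 100% = native peptide agonist; compound fluorescence can raise it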
* hit, by the source's call; & = joins results of further samples.

The line under a structure holds: NPYLR7 agonist | NPYLR7 agonist max-min
Cc1ccc(S(=O)(=O)N2CCN(C(=O)CCc3ccco3)CC2)cc1
→ -5 | -8
Cc1sc2ncnc(N/N=C\c3c[nH]c4ccccc34)c2c1C
→ 10 | 9
Nc1n[nH]c(CC(=O)N2CCCC2)n1
→ 0 | -9
COCC(C)NC(=O)CSc1nnc(-c2ccccc2Cl)n1C (stereo not drawn)
→ 5 | 1
ClC(=Cc1ccc(Cl)cc1)c1ccc2ccccc2n1
→ -3 | -3
C=CCN(CC=C)C(=O)CN1CCN(S(=O)(=O)CC)CC1
→ -2 | 10
Cc1c(S(=O)(=O)N2CCCC(C)C2)c(=O)n(C)c(=O)n1C (stereo not drawn)
→ 1 | -1
CC1OC(Nc2ccccc2)C(O)C(O)C1O (stereo not drawn)
→ -2 | -5
CCC(O)CN(Cc1cccc(OC)c1)Cc1ccco1 (stereo not drawn)
→ 45 | 32
NC(=O)COc1ccc(C(=O)Nc2ccc(N3CCOCC3)cc2)cc1
→ 2 | -2
O=C(NCCc1nc2ccccc2c(=O)[nH]1)[C@@H]1C[C@H]1c1ccccc1
→ -1 | -2
CC1=CC(=C(C#N)C#N)C=C(C)N1c1cccnc1
→ 1 | -1
COC(=O)c1[nH]ncc1CN1CCCC1c1nc(-c2ccccc2)no1 (stereo not drawn)
→ 3 | 4
Cc1ccccc1C(=O)NCC(=O)OC1CCCCC1=O (stereo not drawn)
→ -1 | -4
CN(C(=O)NC1CCCC1)C(c1ccccc1)c1ccccn1 (stereo not drawn)
→ 8 | 6
Cc1ccc(NC(=O)C(C)N2CCN(CCc3ccccc3)CC2)cc1F (stereo not drawn)
→ 0 | -2
CCNC(=O)[C@@H]1C[C@@H](N)CN1C(=O)c1ccc(-c2ccccc2)[nH]1
→ 0&0 | -3&-2
CCOc1cccc2sc(N(CCn3nc(C)cc3C)C(=O)c3nc4ccccc4s3)nc12
→ -16 | -19
COc1cc(S(=O)(=O)NCCc2ccc(OC)c(OC)c2)c(OC)cc1Cl
→ 1 | 4
O=c1c(Oc2ccccc2)coc2cc(O)ccc12
→ -7 | -19
CC(C)(C(=O)N1CCC1(C)C(=O)NS(=O)(=O)c1ccccc1)c1ccccc1 (stereo not drawn)
→ 1 | -2
CCOc1ccc(-c2cc(C(=O)NCCSCc3c(Cl)cccc3Cl)c3ccccc3n2)cc1
→ 22 | 7
Cc1ccccc1Cn1c(C(=O)N2CCN(C(=O)CCl)C(C)C2)cc2ccoc21 (stereo not drawn)
→ 5 | 16
COc1ccccc1OC1CCN(C(=O)c2cccc(O)c2C)CC1
→ 30 | 24
CCCCCc1ccc(C(=O)N2CCc3nc(C)nc(N4CCC(C)CC4)c3C2)cc1
→ -3 | 4
CC(=O)N1CCSC12C(=O)N(Cc1cccc(C)c1)c1ccc(Cl)cc12 (stereo not drawn)
→ -1 | 2
Nc1nc(SCc2cccc([N+](=O)[O-])c2)[nH]c(=O)c1NC(=O)c1ccccc1F
→ 1 | 0
CN1C(=O)NC(c2cccc(Cl)c2Cl)C2=C1CN(CCC(=O)N1CCCC1)C2=O (stereo not drawn)
→ -1 | 7
Cc1cc(C)c2nc(C3CC3)cc(C(=O)N(C)Cc3cnccn3)c2c1
→ -1 | -13
CCOC(=O)C1CCN(CC(=O)N2N=C(c3ccccc3OC)CC2c2ccccc2OC)CC1 (stereo not drawn)
→ 15 | 10
Cc1ccc(C)c(C=C(C#N)c2nnc3n2CCCCC3)c1
→ 1 | -3
COc1ccc(C2=NN(C(C)=O)C(c3ccc4nccnc4c3)C2)cc1 (stereo not drawn)
→ -1 | 2
CC(C)SCCN1C(=O)NC(c2cccnc2)(C2CCNCC2)C1=O (stereo not drawn)
→ 0 | -2
COc1ccc(CN(C(=O)Nc2ccc(C)cc2C)C(C)C)cc1OS(C)(=O)=O
→ -11 | -13
CCOC(=O)c1nc(C)oc1NC(=O)c1ccoc1
→ 5 | -9
COc1cccc(CN(CC(O)Cc2ccccc2)CC2CC(c3ccc(F)cc3)=NO2)c1 (stereo not drawn)
→ -3 | -1
CCCC(=O)Nc1c(-c2ccc(C)cc2)nc2ccc(C)cn12
→ -8 | -7
CCOC(=O)C1=C(C)NC(=S)NC1c1cc(OC)c(OC)c(OC)c1 (stereo not drawn)
→ 3 | 0
CC1(C)Cc2cccc(OS(=O)(=O)c3ccc(N4CCCC4=O)cc3)c2O1
→ -1 | -3
CCOC(=O)C1(CCCc2ccccc2)CCN(C(=O)c2ccc(C#CC(C)(C)O)o2)CC1
→ -14 | -19
CC(C)NC(=O)N1CCN(CC(=O)NC(=O)Nc2ccccc2)CC1
→ 5 | 3
COc1ccccc1N1CC(c2nc3ccccc3n2CCC(C)C)CC1=O (stereo not drawn)
→ 1 | 4
O=C(Nc1nc(CC(=O)N2CCCCCCC2)cs1)C1CC1
→ -1 | 0
CN(C)C1CCCC(NS(C)(=O)=O)C1 (stereo not drawn)
→ 25 | 14
COc1ccc(-c2cc(C(=O)NCCN3CCCC3)n(-c3ccc([N+](=O)[O-])cc3)n2)c(OC)c1
→ 3 | 20
COCc1cc(CN(C)c2nc(-c3cccnc3)nc3c2cnn3C)[nH]n1
→ 11 | -2
O=[N+]([O-])c1ccccc1/C=C/CN1CCC(O)CC1
→ -20 | -24
COCCCN(CC(=O)Nc1cc(-c2ccccc2)nn1-c1ccc(F)cc1)C(=O)Nc1ccc(F)cc1F
→ 15 | 24
CCN(CC)C(=O)Oc1ccc2c(ccn2Cc2cccc(F)c2)c1NC(=O)c1c(Cl)cccc1Cl
→ 5 | 1
O=C(CSc1nnc(-c2ccco2)o1)N1CCCC1
→ 4 | 1
COc1cccc(Cc2nsc(N(CCC(=O)N3CCN(c4ccccc4OC)CC3)C(C)C)n2)c1
→ 0 | -6
CCc1cccc2c(C(CC(=O)NCc3ccc4c(c3)OCO4)c3ccc(Cl)cc3)c[nH]c12 (stereo not drawn)
→ 0 | 0
CCN1C(=O)NC(c2ccc(C(F)(F)F)cc2)C2=C1CN(C(C(=O)Nc1ccc(C)c(C)c1)C(C)C)C2=O (stereo not drawn)
→ -1 | 1
Cn1ccnc1SCc1cc(=O)c(OC(=O)c2ccccc2)co1
→ -2 | -6
CCOC(=O)CCC(=O)Nc1nnc(SCC(=O)c2ccc(C)cc2)s1
→ 24 | 22
CN(c1ccccc1)S(=O)(=O)c1cccc(NC(=O)CCl)c1
→ 12 | 10
COc1cc(OC)cc(C(=O)Nn2cnc3c(cnn3C(C)(C)C)c2=O)c1
→ 5 | 0
CCOC(=O)N1CCN(C(c2ccccc2Cl)C2Sc3nc(CC)nn3C2=O)CC1 (stereo not drawn)
→ -8 | -12
O=C(NCC1CCCO1)c1cccnc1N1CCN(C(=O)c2ccccn2)CC1 (stereo not drawn)
→ -1 | 8
O=c1oc2ccc(Cl)cc2cc1-c1csc(Nc2ccc(Oc3ccc(Cl)cc3)cc2)n1
→ -8 | -15

As entered above:
NPYLR7 agonist with COc1ccccc1N1CC(c2nc3ccccc3n2CCC(C)C)CC1=O (stereo not drawn) stands at 1
NPYLR7 agonist max-min with Cn1ccnc1SCc1cc(=O)c(OC(=O)c2ccccc2)co1 stands at -6

Compound profiles (already shown). Values in the order: NPYLR7 agonist	NPYLR7 agonist max-min
O=C(Nc1nc(CC(=O)N2CCCCCCC2)cs1)C1CC1 across the screens: -1	0
COc1ccc(-c2cc(C(=O)NCCN3CCCC3)n(-c3ccc([N+](=O)[O-])cc3)n2)c(OC)c1 across the screens: 3	20
O=C(CSc1nnc(-c2ccco2)o1)N1CCCC1 across the screens: 4	1
COc1ccccc1N1CC(c2nc3ccccc3n2CCC(C)C)CC1=O (stereo not drawn) across the screens: 1	4
Cn1ccnc1SCc1cc(=O)c(OC(=O)c2ccccc2)co1 across the screens: -2	-6

Following part
The line under a structure holds: NPYLR7 agonist | NPYLR7 agonist max-min
CCOc1ccc(-n2nnc3c(N4CCN(S(=O)(=O)c5ccc(C)cc5)CC4)ncnc32)cc1
→ -4 | -14
CCCc1[nH]nc2c1C1(CCN(C)CC1C)C(C#N)C(=N)O2 (stereo not drawn)
→ 6 | 5
Cc1cc(C(=O)N(Cc2cccnc2)c2nc3c(F)cccc3s2)nn1C
→ 9 | 6
CN(Cc1ccco1)C(=O)c1cc(CN2CCCC(O)C2)on1 (stereo not drawn)
→ 0 | 0
CC(c1ccccc1)N(Cc1cccc(F)c1)Cc1nc(C(=O)N2CCN(C)CC2)co1 (stereo not drawn)
→ 18 | 17
COc1ccccc1C1C(C(=O)OC(C)C)=C(C)NC2=C1C(=O)CC(c1ccc(Cl)cc1)C2 (stereo not drawn)
→ 2 | 4
CC(C)NC(=O)C1CCN(C2CCN(Cc3nc4ccccc4s3)CC2)CC1
→ 2 | -1
CCCOc1ccccc1-c1nc(SCCC(=O)O)n[nH]1
→ -11 | -20
CC(C)n1c(-c2nonc2N)nc2ccccc21
→ 5 | 0
Cc1cc2nc(-c3cccs3)cc(C(=O)N3CCCC3c3cccnc3)c2cc1C (stereo not drawn)
→ 23 | 32
CCc1nccn1CCCNC1CCC2(CCNCC2)CC1
→ 10 | 6
CCC(C)N(Cc1ccccc1OS(=O)(=O)c1ccc(F)cc1)C(=O)Nc1ccccc1OC (stereo not drawn)
→ 5 | 10
c1nc(N2CCN(Cc3cnc(C4CCCCC4)nc3)CC2)c2cc[nH]c2n1
→ 7 | 4
O=C1CC(NC2CCSCC2)CN1CCc1ccccc1 (stereo not drawn)
→ 3 | 1
Cc1ccc(NC2(C(=O)NCc3c(C)n[nH]c3C)CCCC2)cc1
→ 2 | -11
CC(C)C1OCCC1CNC(=O)c1ccc2[nH]ccc2c1 (stereo not drawn)
→ -20 | -21
COc1cc(C=C2N=C(c3cccc(Cl)c3)OC2=O)ccc1OCC(=O)N1CCOCC1
→ 0 | 14
CC(NC(=O)c1ccncc1F)(C(N)=O)c1ccccc1 (stereo not drawn)
→ 6 | 3
CC(c1ccccc1-n1cccn1)n1cc2ncccc2c1O (stereo not drawn)
→ 13 | 9
CC1=C(Br)c2c(C)c(Br)cc(Br)c2S1(=O)=O
→ -2 | -3
O=c1nc(NCc2ccccc2)ccn1-c1nc(-c2ccccc2)oc1-c1ccccc1
→ -1 | -3
Cc1ccc(C2(O)C[n+]3ccccc3N2C(C)C)cc1 (stereo not drawn)
→ 7 | 2
O=c1ccccn1CCCCn1ccccc1=O
→ -4 | -5
CCCCN(CC(=O)N(CCc1c[nH]c2ccccc12)Cc1ccc(F)cc1)C(=O)Nc1cccc(OC)c1
→ 17 | 14
COc1ccc2c(c1)C(CNc1cccc(C(=O)O)c1)=CC(C)(C)CO2
→ 5 | 16
CC(C)NC(=O)NCC1CCCN(Cc2ccccc2F)C1 (stereo not drawn)
→ -6 | -8
c1ccc(-n2nnnc2-c2cccc3[nH]ccc23)cc1
→ -5 | -8
Cc1ccccc1NC(=O)CSc1ccc(-c2ccncc2)nn1
→ 5 | -7
CC(C)c1ccc(CC(=O)N2CCC2(C)C(=O)NS(=O)(=O)c2ccccc2Cl)cc1 (stereo not drawn)
→ -2 | -3
O=C(c1ccccc1F)N(CCN1CCOCC1)Cc1nccn1Cc1ccc(Cl)cc1Cl
→ 7 | 17
CC(NS(=O)(=O)c1cccc(Cl)c1)C(=O)Nc1ccc2c(c1)OC(F)(F)O2 (stereo not drawn)
→ 4 | 5
C=C(C)Cn1c(=O)c2c(nc3n(-c4ccc(C)cc4C)c(C)cn23)n(C)c1=O
→ 1 | 3
CC(C)N(Cc1ccc(OS(=O)(=O)c2ccc(F)cc2)cc1)C(=O)c1ccc(-c2ccccc2)cc1
→ -7 | 1
COc1ccccc1OCC1CN(C(=O)CCCNC(=O)OCc2ccccc2)CCO1 (stereo not drawn)
→ 2 | 18
CCn1nc(C)c(NC(=O)CN(C)Cc2nnc(-c3ccccc3)o2)c1C
→ 24 | 12
CC(C)(C)c1ccc(C(=O)NCCSc2ncc(-c3ccccc3)[nH]2)cc1
→ 6 | 4
CC(C)(C)n1nc2c(c1NC(=O)c1ccccc1Br)CSC2
→ -4 | -5
O=S(=O)(c1cc(F)cc(F)c1)N1CCCCc2ccccc21
→ 15 | 16
CCOC(=O)c1sc(NC(=O)c2ccccc2F)c(C(=O)OCC)c1C
→ -4 | -9
CN1C(=O)c2ccccc2N(CC(=O)N[C@H]2CCOC2=O)C(=O)[C@@H]1Cc1ccccc1
→ 0 | 17
COc1cc(Nc2ccc(NC(=O)CC(C)C)cc2)nc(C)n1
→ 10 | 1
c1ccc(-c2ncn(CCN3CCCCC3)c2-c2cnn3cccnc23)cc1
→ 1 | -3
CC(C)c1ccc(NC(=O)CSc2nc3c(c(=O)[nH]2)CN(Cc2ccccc2)CC3)cc1
→ -11 | -14
CCc1nnc(C2CCN(C(=O)NC3CCCCC3)CC2)s1
→ -5 | -4
COc1ccc(NC(=O)Nc2ccc(N3CCCCC3)c(C(=O)NCCc3ccccc3)c2)c(OC)c1
→ -5 | -9
CCCC(CCC)=NNc1ncnc2sc(C)c(C)c12
→ -12 | -18
Cc1cccc(-c2c(-c3ccccc3)ncn2CCCN2CCNC(=O)C2)c1
→ -2 | -3
N#CC(C#N)=C1C=C2C=C(N3CCCCCC3)CCC2CC1 (stereo not drawn)
→ 673* | 936*
Cc1cccc(C2=NN(C(=O)CN3CCN(Cc4ccccc4)CC3)C(c3cccc(F)c3)C2)c1 (stereo not drawn)
→ 13 | 14
Cc1ccccc1N1CCn2c1nc1c2c(=O)n(CC(C)C)c(=O)n1C
→ -7 | -7
Cc1cc(C)cc(C(=O)N2CCC(c3ccnc(-c4cccnc4)c3)C2)c1 (stereo not drawn)
→ 14 | 17
O=C(NC(c1ccccc1)c1cnccn1)C1CCN(Cc2ccc(Cl)cc2)CC1 (stereo not drawn)
→ -1 | 7
CSc1nc(N)c(S(=O)(=O)C2CCCCC2)s1
→ 2 | 1
CCC(c1nc2ccccc2c(=O)n1-c1cccc(C)c1)N(Cc1ccccc1)C(=O)c1ccc(F)cc1 (stereo not drawn)
→ -7 | 3
CNC(=O)NC1CC(=O)N(c2ccc(OC)cc2)C1 (stereo not drawn)
→ 9 | 7
COc1ccc(S(=O)(=O)Nc2ccc(-c3cn4ccc(C)nc4n3)cc2)cc1OC
→ 0 | -2
Fc1cccc(F)c1CNc1ccc2c(-c3cccnc3)noc2n1
→ 2 | 1

Bioassay records as filed in PubChem.

This is a subset; count on the stated rates, not on these rows.
